# GCN5L2 inh: GCN5L2 (KAT2A) acetyltransferase inhibition; 0.21% of 390,000 active; GCN5L2 HAT assay, ThioGlo1 CoA-SH fluorescence; Q92830; Potency, µM (series often up to 58.9 µM), without a hit: top-dose activity change, negative = inhibition, hits mostly inhibitors; active = well fitted inhibition curve with a large enough effect; inconclusive = small, poorly fitted or top-dose-only effect, or another doubt; inactive = no such curve, though single readings can be large or run the other way
# Target sequence (Q92830 whole entry, looked up): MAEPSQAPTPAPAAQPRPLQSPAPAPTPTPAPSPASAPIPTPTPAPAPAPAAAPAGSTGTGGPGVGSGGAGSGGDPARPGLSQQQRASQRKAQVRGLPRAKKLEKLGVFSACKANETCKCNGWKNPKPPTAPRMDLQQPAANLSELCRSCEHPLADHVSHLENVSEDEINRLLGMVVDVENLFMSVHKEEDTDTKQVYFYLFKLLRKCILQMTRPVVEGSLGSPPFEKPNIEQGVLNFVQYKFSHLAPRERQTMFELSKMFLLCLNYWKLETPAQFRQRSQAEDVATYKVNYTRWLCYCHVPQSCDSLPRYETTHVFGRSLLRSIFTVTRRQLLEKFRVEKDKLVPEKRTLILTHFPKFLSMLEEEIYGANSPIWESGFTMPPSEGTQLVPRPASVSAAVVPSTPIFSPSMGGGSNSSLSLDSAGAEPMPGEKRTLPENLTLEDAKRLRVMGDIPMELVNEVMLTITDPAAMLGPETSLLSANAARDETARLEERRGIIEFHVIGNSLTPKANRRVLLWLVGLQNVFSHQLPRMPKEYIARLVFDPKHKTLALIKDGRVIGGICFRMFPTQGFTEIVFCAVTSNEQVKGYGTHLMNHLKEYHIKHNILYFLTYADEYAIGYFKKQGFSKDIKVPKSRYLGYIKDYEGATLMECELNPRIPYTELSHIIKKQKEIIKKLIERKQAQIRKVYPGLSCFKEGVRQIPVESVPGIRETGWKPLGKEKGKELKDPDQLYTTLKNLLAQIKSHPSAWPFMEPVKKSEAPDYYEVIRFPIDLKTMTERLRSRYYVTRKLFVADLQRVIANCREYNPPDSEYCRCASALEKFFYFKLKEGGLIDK
#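 Compounds, pin-transferred from DMSO stocks, meet 20nM GCN5L2 for 15 min before the reaction begins with H3(1-25) peptide (75uM) and acetyl-CoA (70uM). Thiol-reactive ThioGlo1 reports CoA release over 20 min at room temperature.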
# * marks the source's active call; other numbers are inactive results; ? = inconclusive. % is set by controls: 0 for no effect and ±100 for the full control effect; potency is the fitted concentration of half-maximal effect. Some of the compounds tested; most or all hits stand in other tables.
SMILES,GCN5L2 inh
O=C(NCc1ccc(Cl)cc1)C(=O)NCC1OCCN1C(=O)c1ccc(Cl)cc1 (centres undefined),0%
Cc1ccc(OCc2nc(-c3cccs3)no2)c([N+](=O)[O-])c1,-5%
COc1cc(OC)cc(C(=O)N[C@H](C(=O)Nc2nc3c(s2)CCCC3)C(C)C)c1,-10%
Cc1nc(NC(=S)NC(=O)c2ccco2)sc1C(=O)N(C)C,-11%
COC(=O)CN1C(c2ccc(OC)cc2)=Nc2ccc(Cl)cc2C1c1ccccc1 (centres undefined),14%
O=C(N/N=C/c1ccco1)c1cc(=O)[nH]c2ccccc12,-5%
CCOC(=O)c1[nH]c(C)c(C(=O)N2CCN(C(=O)c3ccco3)CC2)c1C,2%
CN1C(=O)C(=O)N(CC(=O)N2CCc3ccccc32)C1=O,0%
O=S(=O)(Nc1cccc(-c2ccc(N3CCCCC3)nn2)c1)c1ccc(Cl)s1,-11%
O=C(NCCc1ccccc1)C(c1ccc(F)cc1)N(C(=O)c1csnn1)C1CC1 (centres undefined),-2%
O=C(CN1CCN(CCC(=O)Nc2ccccc2F)CC1)Nc1ccc(F)cc1,4%
CCC(C)NC(=O)c1cc2n(n1)CCCN(Cc1ccc(C)cc1)C2=O (centres undefined),20%
CC1=CC(C)(C)N(C(=O)Nc2ccccc2)c2ccccc21,-3%
CCCCCCCCn1cc(C(C)=O)c(=O)[nH]c1=O,-6%
O=C(CCN1CCCO1)N1CCCC(N2CCN(c3ccccc3F)CC2)C1 (centres undefined),-1%
CC(=O)c1c(C)oc2c1cc(NS(=O)(=O)c1ccc(Br)cc1)c1ccccc12,3%
O=C(NCCc1ccccc1)C1CCCN(S(=O)(=O)c2cccs2)C1 (centres undefined),-10%
CC(CC(=O)Nc1ccc(S(=O)(=O)N2CCOCC2)cc1)c1ccccc1 (centres undefined),-23%
Cc1ccccc1NC(=O)CCS(=O)(=O)c1ccc(Br)s1,-6%
COc1ccc(S(=O)(=O)N2CCOC2CNC(=O)C(=O)NCc2ccccn2)cc1C (centres undefined),-3%
Cn1cc(C(=O)NCc2ccccc2)c(=O)c2cc(S(=O)(=O)N3CCCCCC3)ccc21,-6%
COC(=O)C(CC(=O)c1ccc(Cl)cc1)c1ccc(C(C)C)cc1 (centres undefined),-6%
CN(C)c1ccc(-c2nc(-c3ccncc3)no2)cc1[N+](=O)[O-],-4%
N#C/C(=C\c1ccc(-c2ccc(F)cc2)o1)C(=O)Nc1nc(-c2cccs2)cs1,-5%
CCOc1ccc2[nH]c(=O)c(CN(Cc3cccnc3)C(=O)Nc3ccccc3OC)cc2c1,-13%
Cc1ccc(S(=O)(=O)Nc2cccc3c2O[C@H](CN(C)Cc2ccc(-c4ccccc4)cc2)[C@@H](C)CN([C@H](C)CO)C3=O)cc1,-11%
CCOc1ccc(C(=O)OCn2nnc3ccccc3c2=O)cc1OC,0%
COC(=O)c1cc2oc(C)cc2n1Cc1ccc(Cl)cc1,-6%
O=C(NCCc1nnc2ccc(NCc3ccc(Cl)cc3)nn12)c1ccccc1,-4%
CCOC(=O)c1c(NC(=O)C(Sc2ccccc2)c2ccccc2)sc(C(N)=O)c1C (centres undefined),?

# Already shown: an excerpt of the list.
SMILES,GCN5L2 inh
O=C(NCCc1ccccc1)C1CCCN(S(=O)(=O)c2cccs2)C1 (centres undefined),-10%
CC(CC(=O)Nc1ccc(S(=O)(=O)N2CCOCC2)cc1)c1ccccc1 (centres undefined),-23%
Cc1ccccc1NC(=O)CCS(=O)(=O)c1ccc(Br)s1,-6%

# The main list resumes, starting 2 compounds before the break.
SMILES,GCN5L2 inh
O=C(NCCc1nnc2ccc(NCc3ccc(Cl)cc3)nn12)c1ccccc1,-4%
CCOC(=O)c1c(NC(=O)C(Sc2ccccc2)c2ccccc2)sc(C(N)=O)c1C (centres undefined),?
COc1ccc(CN(C(=O)c2cccs2)C(C(=O)NC2CCCCC2)c2ccc3ncccc3c2)cc1 (centres undefined),-19%
O=C(Nc1c(O)c2ccccc2oc1=O)c1ccccc1Cl,-15%
O=C(CCN1C(=O)/C(=C/C=C/c2ccccc2)SC1=S)Nc1cccnc1,?
CCOC(=O)N1CCC(N2Cc3cccc(C(=O)Nc4cccc(F)c4)c3C2=O)CC1,-5%
CC(=O)Nc1ncc(Cc2cccc(Cl)c2Cl)s1,4%
CSCCC(NC(=O)c1ccccc1)C(=O)NCc1ccco1 (centres undefined),2%
CC(=O)c1c(C)nn(-c2ccccc2)c1C,-2%
FC(F)Sc1nnc(-c2cccs2)n1-c1ccccc1,-3%
O=C(NCCN1CCCCCC1)C1CCC(CNS(=O)(=O)c2cccc3cccnc23)CC1 (centres undefined),-10%
COc1ccccc1CCC(=O)NC1CCCN(c2ccc(C(F)(F)F)cn2)C1 (centres undefined),1%
COc1cc(/C=C/C(=O)OCC(=O)N2CC3(C)CC2CC(C)(C)C3)ccc1O (centres undefined),-4%
CN(C)S(=O)(=O)c1cccc(COC(=O)Cc2c(F)cccc2Cl)c1,-11%
Cc1ccc(-c2c(C)sc(=NC(=O)c3ccco3)n2C)cc1,-14%
Cc1ccc(CN(Cc2ccco2)C(=O)COc2ccc(Cl)cc2)o1,-11%
O=C(COc1ccc(Cl)cc1Cl)NN1C(=O)/C(=C\c2ccc(Cl)cc2)SC1=S,-7%
O=C(c1ccc(S(=O)(=O)N2CCCC2)cc1)N(c1ccc(F)cc1)C1C=CS(=O)(=O)C1 (centres undefined),-2%
O=C(NCCc1nnc2ccc(N3CCCCCC3)nn12)c1ccccc1,-29%
Cc1ccnc(NC(=O)Cn2ccc([N+](=O)[O-])n2)c1,-6%
N#Cc1nc(Cc2ccccc2)oc1NCCc1ccccc1,-14%
CC1CCCC(NC(=O)CCNC(=O)c2ccc([N+](=O)[O-])cc2)C1C (centres undefined),-12%
CC1CCCCN1C(=O)COC(=O)c1cc([N+](=O)[O-])ccc1N (centres undefined),-2%
NC(=O)COc1c(-c2ccccc2)oc2ccccc2c1=O,0%
N/C(Cc1cccc2ccccc12)=N\OC(=O)c1cccs1,-4%
CCOc1ccc(CNC(=O)CCCn2ccc3cc(S(=O)(=O)N4CCCC4)ccc32)cc1,-17%
CCCCCCSc1nnc(N)s1,-1%
O=C(COc1ccc(S(=O)(=O)NC2CCCCC2)cc1)Nc1ccc2c(c1)OCCO2,-9%
COc1ccc(N(CC(=O)N2CCN(Cc3ccc4c(c3)OCO4)CC2)S(=O)(=O)c2ccc(F)cc2)cc1,-6%
COc1ccc(Cl)cc1N(C)C(=O)C(=O)Nc1ccc2nc3n(c(=O)c2c1)CCCCC3,2%
O=C(CSc1nc2c(c(=O)[nH]1)CCC2)Nc1cccc(F)c1,-4%
CNC(=O)C1CCC(Cn2c(=O)c3sccc3n(CC(=O)NCc3ccc(F)cc3)c2=O)CC1 (centres undefined),-13%
CCOC(=O)CN1C(=O)Nc2ccc(Br)cc2C1c1ccccc1 (centres undefined),-13%
CN(Cc1ccccc1)S(=O)(=O)c1ccc(Cl)c(C(=O)NCc2ccncc2)c1,0%
O=C(COc1ccccc1-c1ccccc1)N/N=C/c1cccc2ccccc12,-22%
N#CCC(=O)Nc1ccc(C(=O)OCC(=O)NNC(=O)c2ccc(Cl)cc2)cc1,-7%
COCCn1c(SCC(=O)NCC2CCCO2)nc2c(c1=O)SC(C)C2 (centres undefined),-6%
Cc1ccccc1OCCC(=O)Nc1ccc(F)c(Cl)c1,-8%
CCc1ccc(NC(=O)CCc2nc3ccccc3[nH]2)cc1,-2%
FC(F)(F)c1cnc(N2CCC(=NOCc3ccc(Cl)cc3)CC2)c(Cl)c1,-8%
Cc1ccc(CCC(=O)Nc2ccccc2C(=O)O)o1,-1%
COc1ccc(-c2nsc3c(N4CCCC4)ncnc23)cc1,1%
C/C(=N\NC(=O)CCc1ccc(S(=O)(=O)N2CCOCC2)cc1)c1ccccc1Cl,-9%
CCC(CC)C(=O)NCCc1cc2ccc(OC)cc2[nH]c1=O,-3%
Cn1c(=O)c2c(nc(N3CCOCC3)n2CCCNC2=NCCC2)n(C)c1=O,-9%
COc1ccc(S(=O)(=O)NCC2CCCN(CC(C)(C)C)C2)cc1 (centres undefined),-1%
COc1ccc(CNC(=O)c2cccnc2SC)cc1OC,-3%
CC(C)c1nnc(NC(=O)C2CCCO2)s1 (centres undefined),-6%
Cc1ccc(NC(=O)c2ccc3c(c2)C(=O)N(Cc2cccnc2)C3=O)c(C)c1,-9%
c1ccc(COc2ccc(OCCOCCn3cncn3)cc2)cc1,-14%
COc1ccc2nc(NC(=O)CCc3nc(-c4ccccc4F)no3)sc2c1,-2%
CN(C)c1ccc(C(=O)OCC(=O)N2CCCCCC2)cc1,-14%
CCOc1ccc(NS(=O)(=O)c2ccc(C(=O)N3CCN(C(C)=O)CC3)cc2)cc1,-3%
Cc1cc(C)cc(NS(=O)(=O)c2ccc(NC(=O)C3CCCCC3C(=O)O)cc2)c1 (centres undefined),3%
CC(C)N(Cc1ccccc1)C(=O)COC(=O)c1cnccn1,-3%
Cc1c(O)c(CN2CCCCC2)cc2c3c(c(=O)oc12)CCC3,?
c1ccn2cc(CSc3nnc4ccccn34)nc2c1,-4%
c1ccc(-c2nnc3n2-c2ccccc2SC3)cc1,-12%
CCn1cc(S(=O)(=O)NCCc2ccc(F)cc2)cn1,-16%
CCn1ncc(CN2CCN(Cc3ccc(OC)c(C)c3C)C(CCO)C2)c1C (centres undefined),0%
O=[N+]([O-])c1cccc(/C=N\N2CCN(Cc3ccccc3Cl)CC2)c1,-2%
O=c1nc(SCc2cccc(C(F)(F)F)c2)nc2ccccn12,-1%

# In another format: results already given
smiles | GCN5L2 inh
CC(C)c1nnc(NC(=O)C2CCCO2)s1 (centres undefined) | -6%
Cc1ccc(NC(=O)c2ccc3c(c2)C(=O)N(Cc2cccnc2)C3=O)c(C)c1 | -9%
c1ccc(COc2ccc(OCCOCCn3cncn3)cc2)cc1 | -14%
COc1ccc2nc(NC(=O)CCc3nc(-c4ccccc4F)no3)sc2c1 | -2%

# (more compounds)
SMILES,GCN5L2 inh
CCC(=O)N1CCN(c2ccc(NC(=S)NC(=O)c3cc4ccccc4o3)cc2)CC1,1%
COc1ccc(C2CC(=O)c3cnc(N)nc3C2)c(OC)c1 (centres undefined),-1%
O=C1/C(=N\S(=O)(=O)c2cccs2)C([n+]2cccc(Cc3ccccc3)c2)=C([O-])c2ccccc21,-5%
O=C(/C=C/c1ccc(Cl)c([N+](=O)[O-])c1)c1cccnc1,-8%
CC1CN(c2nc3ccccc3nc2C(C#N)C(=O)OC2CCCCC2)CC(C)O1 (centres undefined),-5%
Cc1nn(-c2ccccc2)c(OC(=O)c2ccc(F)cc2)c1S(=O)(=O)c1ccccc1,-10%
COC(=O)N/N=C/c1ccc(/C=N/NC(=O)OC)cc1,-2%
CCC(c1nnc(SCC(=O)NNC(=O)c2ccccc2)n1Cc1ccccc1)N(C)C (centres undefined),-7%
CCN(CC)CCn1c(=N)n(CC(O)COc2cccc(C)c2)c2ccccc21 (centres undefined),-4%
O=C(NCc1ccc(F)cc1)c1ccc2c(c1)N(Cc1c(F)cccc1Cl)C(=O)CS2,-8%
COc1cccc(CNC(=O)CSc2nnc3c(n2)[nH]c2ccccc23)c1,-7%
COc1ccc(S(=O)(=O)c2ccccc2)cc1NS(=O)(=O)c1cccc(C(=O)O)c1,-1%
C/C(=N\OCC(=O)Nn1c(C)nc2ccccc2c1=O)c1cccs1,-1%
C=CCNc1nc(N2CCOCC2)c(C#N)c2c1CN(C)CC2,-3%
COc1cc(OC)c(OC)cc1/C=C/c1nc2cc3ccccc3cc2c(=O)n1-c1ccc(F)c(Cl)c1,-5%

# Next section, starting with the last 4 of the part before.
SMILES,GCN5L2 inh
COc1ccc(S(=O)(=O)c2ccccc2)cc1NS(=O)(=O)c1cccc(C(=O)O)c1,-1%
C/C(=N\OCC(=O)Nn1c(C)nc2ccccc2c1=O)c1cccs1,-1%
C=CCNc1nc(N2CCOCC2)c(C#N)c2c1CN(C)CC2,-3%
COc1cc(OC)c(OC)cc1/C=C/c1nc2cc3ccccc3cc2c(=O)n1-c1ccc(F)c(Cl)c1,-5%
Cc1cc(C)cc(-n2c(C)cc(/C=N/NC(=O)CN(c3c(C)cccc3C)S(C)(=O)=O)c2C)c1,-11%
CC(C)(C)C1CCc2c(sc(NC(=O)C3c4ccccc4Oc4ccccc43)c2C(N)=O)C1 (centres undefined),-13%
Cc1cccc(CC2S/C(=N/c3cccc(C)n3)NC2=O)c1 (centres undefined),-10%
CCC(C)(C)NC(=O)CN(C(=O)C(=O)Nc1ccc2c(c1)OCCO2)N1CCOCC1,-4%
COc1ccc(NC(=O)CSc2nnc(Cc3cccn3C)n2-c2ccc(C)cc2)cc1OC,0%
CCS(=O)(=O)N1CCC(c2nc3ccccc3[nH]2)CC1,-2%
CSc1ccccc1NC(=O)Cn1c(-c2cscn2)nc2ccccc21,-24%
COc1ccc(C(=O)N/N=C(\C)c2ccccn2)cc1OC,3%
O=C(Oc1ccc(F)cc1)c1nc(SCc2ccccc2F)ncc1Cl,-4%
Clc1cccc(CN2CCC(Cc3ccccc3)CC2)c1,-1%
O=C(CSc1ncnc2c1nnn2Cc1ccc(F)cc1)NC1CCCCC1,-11%
COc1ccc(C(=O)c2cn(Cc3ccc(C)cc3)c3cc4c(cc3c2=O)OCO4)cc1,-12%
O=C(NC(=S)N1CCN(c2ccc([N+](=O)[O-])cc2)CC1)c1ccco1,-1%
O=C(COc1ccc(Cl)cc1Cl)Nc1cccnc1,-3%

# Source: PubChem (National Center for Advancing Translational Sciences (NCATS))
